Screening data from PubChem.
PrP 5UTR inh: inhibition of PrP 5' UTR reporter expression | inhibition, % (test concentration not listed) | AID 488862, 2010 | cell-based PrP 5' UTR mRNA reporter, plate reader | hit rate 0.35% among 340,000;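 active means every replicate at 50% or more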;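 further: 0 = median of the neutral control wells; tested in H4 reporter cells; numbers are from one replicate; inactives centre near -14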
RN4220 kill: growth inhibition of S. aureus RN4220, primary screen, OD600. 16 h. inhibition, % (concentration not given with the values). hit rate 0.33% among 330,000. AID 1259311, 2017;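 active means z-score of -3 or lower and OD600 up to 0.18 on both plates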;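 further: plate controls were untreated cells for no effect and reference antibiotic for full effect; stock transfer was 100 nL into about 80 µL; one replicate is shown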
Mtb hypoxia rep: PubChem AID 1159583 | M. tuberculosis hypoxia-regulated fluorescent reporter, fluorescence | fluorescence inhibition, % (concentration not given with the values) | hit rate 0.1% among 300,000;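 active means 35 to 45% if threefold the growth effect, above 45% if 1.5-fold the growth effect; inactive means the rest, general growth blockers included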;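 further: wells of about 50 µL received 100 nL stock; 0% = vehicle wells and 100% = reference inhibitor wells; whole bacteria with a GFP reporter of the hypoxia response; strong numbers were not always called active; many hits fall short of the cut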
BJeLR lethal: MLPCN primary cell-based screen for lethality selective to Ras in HRASV12 cells. inhibition, % (test concentration not listed). BJeLR (HRASV12) viability, CellTiter-Glo ATP luminescence, 48 h; reference of the scale not given here. AID 1554, 2009. hit rate 0.17% among 300,000;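 active means replicate mean above 50%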;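 further: 50 nL library stock added to about 25 µL; numbers are from one replicate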
Sa ugtP lethal: growth inhibition of ugtP-null S. aureus, primary screen, RN4220 ugtP deletion, OD600. AID 1259309, 2017. growth inhibition, % (test concentration not listed). 16 h; some inactives read as strong as hits. hit rate 0.54% among 330,000;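 active means z-score under -3 and OD600 up to 0.15 on both plates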;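 further: plate controls were untreated wells for no effect and antibiotic for full effect; wells of about 80 µL received 100 nL stock; the first replicate is given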
Autofluor counter: compound fluorescence in toxin protease inhibitor counterscreen; fluorescence intensity (no concentration beside the values); hit rate 3.1% among 360,000; compound autofluorescence counterscreen, microsphere flow cytometry; stronger effect = higher value;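 active means at least 3 SD above the mean of all compounds, about 16000 in these data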;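 further: 100 nL of 1 mM stock went into each well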
Mtb hypoxia rep growth: recorded beside Mtb hypoxia rep, whose call it bears; growth inhibition, %; measured here: M. tuberculosis growth (absorbance);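 0% = vehicle and 100% = reference antibiotic; read after six days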
Numbers without * were called inactive; nt = not tested or not shown.

SMILES	PrP 5UTR inh	RN4220 kill	Mtb hypoxia rep	Mtb hypoxia rep growth	BJeLR lethal	Sa ugtP lethal	Autofluor counter
C/C=C(\C)C(=O)Nc1cccc(C2=NOC3(C2)C[C@@H](C(N)=O)N(C(=O)c2cc([N+](=O)[O-])cc([N+](=O)[O-])c2C)C3)c1 (some centres not stated)	8	nt	nt	nt	-2	nt	3787
O=C(O)/C=C/c1coc2ccc(F)cc2c1=O	-23	4.6	4	1	-8	0	2468
Cc1cc(C)cc(C(=O)NC(CC(N)=O)c2ccc(N3CCN(c4ccccn4)CC3)c([N+](=O)[O-])c2)c1 (configuration not stated)	3	9.8	5	5	-4	5	4055
c1cncc(Nc2nc(-c3cccs3)cs2)c1	-106	-3.2	5	8	-2	-7	11155
N/C(=N\OC(=O)c1ccc(F)cc1)c1ccc(Br)cc1	-69	10	14	2	10	6	4385
CCOC(=O)C1C2COc3cc(OC)ccc3C2N2C(=O)N(c3ccc(F)cc3)C(=O)[C@@]12C (some centres not stated)	nt	4.8	16	8	nt	-5	nt
O=C(NCCC1=CCCCC1)c1cccc2c1C(=O)N(C1CCCCC1)C2	-11	7.2	2	1	-7	-3	2114
O=C(COc1ccc2ccc(=O)oc2c1)N1CCN(c2ccc(F)cc2)CC1	9	5.9	4	1	4	5	5276
CC(=O)Nc1cc2c3c(c1)CCC(=O)N3CCC2	-25	1.7	1	-3	3	0	5722
Cc1cc(C)nc(NC(=O)c2csnn2)c1	-29	1.1	-24	-16	4	-2	4431

Looked up by structure from the list above (2):
SMILES	PrP 5UTR inh	RN4220 kill	Mtb hypoxia rep	Mtb hypoxia rep growth	BJeLR lethal	Sa ugtP lethal	Autofluor counter
Cc1cc(C)nc(NC(=O)c2csnn2)c1	-29	1.1	-24	-16	4	-2	4431
c1cncc(Nc2nc(-c3cccs3)cs2)c1	-106	-3.2	5	8	-2	-7	11155

Additional compounds follow.
SMILES	PrP 5UTR inh	RN4220 kill	Mtb hypoxia rep	Mtb hypoxia rep growth	BJeLR lethal	Sa ugtP lethal	Autofluor counter
O=C(/C=C/c1ccc(Cl)c([N+](=O)[O-])c1)Nc1ccc(N2CCCC2)cc1	-15	1.9	7	3	0	5	2758
C=C1[C@H](C)CN(S(=O)(=O)C(C)(C)C)[C@H]1CCO	-19	4.8	1	-4	nt	14	3101
COc1ccc(-c2nnc(SCc3cc(C)ccc3C)n2N)cc1	-33	2.8	13	8	3	-3	9522
COc1cc2c(cc1OC)-c1cc(Nc3ccccc3Br)nc(=O)n1CC2	2	3.4	-7	-11	-3	-1	2547
Cc1cc(C(=O)NCCN2CCN(c3cccc(Cl)c3)CC2)n(-c2ccccc2)n1	0	-1.3	8	8	nt	8	6038
S=c1[nH]nc(-c2ccco2)n1-c1ccc(Cl)cc1	-20	0.8	8	12	4	4	3957
CCc1ccc(C(=O)NNc2ccccc2F)cc1	-22	2.4	-6	7	-2	2	6409
CC(=O)NC(=O)NC1OC(=O)C(Cl)=C1Cl (configuration not stated)	-5	37	6	2	-1	3	4411
CCN(CC(=O)N1CCC(C(N)=O)CC1)S(=O)(=O)c1ccc(Cl)cc1	-7	0.2	-2	-2	-24	4	5998
C=CCNC(=S)NNC(=O)c1cccn(Cc2ccc(Cl)cc2Cl)c1=O	-2	1.2	0	3	-4	0	22647*
Cc1cccc(NC(=O)Cn2c(O)c(N=NC(=O)c3ccccc3O)c3ccccc32)c1	-29	-2.4	12	6	1	-12	9542
COc1ccc(CCNC(=O)COC(=O)c2cnc(C)cn2)cc1OC	-18	2.8	8	0	-7	10	7460
Cc1nc(SCC(=O)N2CCN(c3ccccn3)CC2)c(C#N)c(C)c1C	-16	-0.4	7	8	nt	-4	9015
COc1ccc(C(=O)N2CCN(c3ccccn3)CC2)cc1	-10	4.0	16	-13	-2	6	10083
CCCCc1c(O)nc(SCC(=O)Nc2ccc3c(c2)CCC3)[nH]c1=O	-12	12	nt	nt	1	-1	5531
COc1ccc(OC)c(S(=O)(=O)N(C(C)=O)c2ccc3oc(=O)sc3c2)c1	-20	0.3	6	-2	0	4	4473
Cc1ccc(S(=O)(=O)NCC(=O)OCC(=O)N2CC(=O)Nc3ccccc32)cc1	-14	-1.2	1	-4	nt	-1	3544
COc1cc(OC)nc(NC(=O)CSc2nnc(-c3ccccc3)n2C2CCCCC2)n1	0	5.6	2	8	-2	-14	2523
CC(=O)Oc1ccc(/C=N/NC(=O)C2CCCN2S(=O)(=O)c2ccc(Cl)cc2)cc1 (configuration not stated)	6	nt	nt	nt	-6	nt	2716
O=C(CCOc1ccccc1)N1CCN(c2ccc(O)cc2)CC1	0	1.9	16	7	-7	3	4140
Cc1ccc(N=CC2=C(O)CC(c3ccccc3Cl)CC2=O)cc1 (configuration not stated)	nt	2.6	9	8	5	5	nt
Cc1nc([N+](=O)[O-])c(N2CCN(Cc3ccccc3)CC2)n1Cc1ccccc1	-9	0.1	nt	nt	1	5	2783
CCOc1cc(C2C3=C(CCCC3=O)NC3=C2C(=O)CCC3)cc(Cl)c1O	-5	3.7	5	7	12	-2	4485
CCc1ccccc1NC(=O)c1ccoc1C	-5	3.6	8	12	0	1	3863
O=C(CCc1ccc(S(=O)(=O)N2CCCCC2)cc1)c1nnc(-c2ccccc2)o1	-17	-3.4	3	1	1	-22	2427
COC(=O)C(Cc1ccccc1)NC(=O)C(N)CC(=O)O (configuration not stated)	nt	8.5	1	10	nt	-1	nt
COc1ccc(CNC(NC(=O)c2ccccc2)(C(F)(F)F)C(F)(F)F)cc1	-7	3.3	7	-3	-2	12	2411
O=C(CSc1ccc(-c2ccccc2)nn1)c1ccccc1	-35	16	11	12	-5	17	9666
Cn1c(=O)n(C)c2cc(NS(=O)(=O)c3cccs3)ccc21	-27	5.9	2	-5	-4	9	4413
CC(C)c1nc(C#N)c(NN)o1	-19	3.3	-1	4	-1	6	6084
COc1ccc(C2C(C(=O)NCC3CCCO3)c3cc(OC)c(OC)cc3C(=O)N2C)cc1OC (configuration not stated)	-16	4.0	9	6	-7	-3	8632
CCC(C)N(C(=O)CSc1nnnn1-c1ccccc1OC)C1CCS(=O)(=O)C1 (configuration not stated)	-20	2.7	3	9	nt	3	8818
O=C(OCCCc1cc2ccccc2c(=O)o1)c1ccccc1C(F)(F)F	-13	11	-1	4	nt	15	2907
CS(=O)(=O)N1CCC(C(=O)N2CCN(Cc3ccccc3)CC2)CC1	-19	1.5	7	9	-6	2	3583
Cc1ccc(S(=O)(=O)N(C)c2cc(S(=O)(=O)N3CCOCC3)c(C)cc2C)cc1	-26	3.8	6	3	-4	1	3574
O=C1CCC[C@H]2c3[nH]c4ccccc4c3CCN12	-21	5.3	nt	nt	-6	1	5411
O=C(NNS(=O)(=O)c1ccccc1)c1ccccc1-n1cccc1	-10	6.9	-2	-6	4	2	5710
COc1ccc(NC(=S)NC23CN4CN(CN(C4)C2)C3)cc1	-12	0.3	2	-8	-5	3	2456
Cc1ccc(C)c(N2CCN(C(=O)CCS(=O)(=O)c3cccc4nonc34)CC2)c1	-18	4.0	16	15	-5	-1	6607
O=C(C1=C[C@H](c2ccc3c(c2)OCO3)C[C@H](OCc2ccc(CO)cc2)O1)N1CCN(Cc2ccc3c(c2)OCO3)CC1	-9	nt	nt	nt	-15	nt	3740
CC(C(=O)O)c1ccc2c(c1)[nH]c1ccc(Cl)cc12 (configuration not stated)	-16	nt	nt	nt	-4	nt	5808
Cc1cccc(-c2nc(NCCCN(C)C)c3ccccc3n2)c1	0	0.4	6	19	-11	-5	4125
COc1ccc(NC(=O)C2CCCN2S(=O)(=O)c2ccc3c(c2)CCC(=O)N3)c(OC)c1 (configuration not stated)	-10	3.4	nt	nt	nt	2	4394
CC(=O)Nc1cccc(NC(=O)C2CCCN2C(=O)Nc2cccc(C)c2)c1 (configuration not stated)	-12	4.3	7	-4	-4	3	9811
O=C(NC1CCCCC1)C1CC=CC2CCN(C3CCCCC3)C(=O)C21 (configuration not stated)	nt	2.8	8	15	nt	2	nt
COc1ccc(C(=O)CSc2nnc(NC(=O)C3CC(=O)N(c4ccccc4)C3)s2)cc1 (configuration not stated)	-10	0.4	3	-2	2	11	2331
COc1ccccc1OCCCOc1ccc(/C=C2\SC(=O)NC2=O)cc1OC	-15	24	10	-2	-14	26	4020
O=C(Nc1ccccc1)N1CCn2c1nc1ccccc12	7	-2.6	nt	nt	-4	-9	4462
Cc1cc(-c2ccc(S(=O)(=O)N3CCCCC3)s2)on1	-10	5.0	8	3	10	-14	4835
COc1cc2c(cc1OC)C(C)N(C(=S)Nc1ccccc1)CC2 (configuration not stated)	-12	3.2	9	0	2	14	3695
(listing goes on)
SMILES	PrP 5UTR inh	RN4220 kill	Mtb hypoxia rep	Mtb hypoxia rep growth	BJeLR lethal	Sa ugtP lethal	Autofluor counter
COC(=O)c1ccc(NC(=O)CSc2nc3cccnc3n2C)cc1	-5	-3.3	nt	nt	1	-6	4525
c1ccc(Nc2ncnc3[nH]ncc23)cc1	nt	3.4	2	5	-11	3	6204
CCc1ccc(NC(=S)Nc2cccc3cnccc23)cc1	-20	1.0	5	9	9	9	4388
Cc1ccc(SCC(=O)OCC(=O)N(CCC#N)c2ccccc2)cc1C	-12	5.7	-2	-1	7	1	5271
Cc1cc(C)cc(-n2ncc3c2CCCC3NC(=O)CCN2Cc3ccccc3C2=O)c1 (configuration not stated)	-19	0.3	6	0	0	-7	6433
CC(=O)c1ccc(NC(=O)C2(c3ccccc3)CCOCC2)cc1	-43	0.7	nt	nt	1	6	3339
O=C(Cn1cnc2cc([N+](=O)[O-])ccc2c1=O)NC(c1ccccc1)c1ccccc1	-8	-0.4	-5	1	-1	-2	3954
CCOC(C[n+]1c(-c2ccccc2)cc(C)cc1-c1ccccc1)OCC	-16	4.8	18	8	11	0	3217
COc1cc(C)nn1-c1ccc(Cl)cc1	-13	6.8	-2	5	0	6	4096
N#CC1=C2SCN(Cc3ccccc3)CN2C(=O)CC1c1cccs1 (configuration not stated)	-19	-9.6	0	7	4	-9	5887
COc1ccc(C(=O)C2CCN(C(=O)c3ccco3)CC2)cc1	-17	6.2	4	3	-18	5	10087
CCCC(=O)C1=C(O)C(C(=O)OC)C(C)(C)CC1=NCCc1ccccc1 (configuration not stated)	-13	-1.3	-1	-9	3	-2	3253
COc1ccc2[nH]c3c(c2c1)CCN1C(=O)N([C@@H](C)C(=O)NCc2ccccc2OC)C(=O)[C@]31C	-16	0.5	nt	nt	-2	13	4359
CC(OC(=O)CNC(=O)c1ccc(Cl)c(Cl)c1)C(=O)N1CCOCC1 (configuration not stated)	-35	3.0	-11	-12	-3	7	5647
Cc1cc(NC(=O)CSc2nnc(C3CC3)n2C)no1	-15	0.7	6	5	2	2	3300

Structures above that contain an aryl thioether with sulfur outside any ring:
SMILES	PrP 5UTR inh	RN4220 kill	Mtb hypoxia rep	Mtb hypoxia rep growth	BJeLR lethal	Sa ugtP lethal	Autofluor counter
COc1ccc(-c2nnc(SCc3cc(C)ccc3C)n2N)cc1	-33	2.8	13	8	3	-3	9522
Cc1nc(SCC(=O)N2CCN(c3ccccn3)CC2)c(C#N)c(C)c1C	-16	-0.4	7	8	nt	-4	9015
CCCCc1c(O)nc(SCC(=O)Nc2ccc3c(c2)CCC3)[nH]c1=O	-12	12	nt	nt	1	-1	5531
COc1cc(OC)nc(NC(=O)CSc2nnc(-c3ccccc3)n2C2CCCCC2)n1	0	5.6	2	8	-2	-14	2523
O=C(CSc1ccc(-c2ccccc2)nn1)c1ccccc1	-35	16	11	12	-5	17	9666
CCC(C)N(C(=O)CSc1nnnn1-c1ccccc1OC)C1CCS(=O)(=O)C1 (configuration not stated)	-20	2.7	3	9	nt	3	8818
COc1ccc(C(=O)CSc2nnc(NC(=O)C3CC(=O)N(c4ccccc4)C3)s2)cc1 (configuration not stated)	-10	0.4	3	-2	2	11	2331
COC(=O)c1ccc(NC(=O)CSc2nc3cccnc3n2C)cc1	-5	-3.3	nt	nt	1	-6	4525
Cc1ccc(SCC(=O)OCC(=O)N(CCC#N)c2ccccc2)cc1C	-12	5.7	-2	-1	7	1	5271
Cc1cc(NC(=O)CSc2nnc(C3CC3)n2C)no1	-15	0.7	6	5	2	2	3300

Hits appear at their usual frequency; about 4.1% have a hit in one of these screens.
